VDR inh = Inhibitors of the vitamin D receptor (VDR): qHTS | Potency, µM, inactives show max response, negative = inhibition, most hits filed as inhibitors | 400,000 tested, 0.93% active | AID 504847, 2011 | VDR-SRC2-3 peptide fluorescence polarization, 2 h | Vitamin D3 receptor (Homo sapiens), P11473; active = well fitted inhibition curve with a large enough effect; inconclusive = small, poorly fitted or top-dose-only effect, or another doubt; inactive = no such curve, though single readings can be large or run the other way; note: series mostly up to about 120 µM
Target sequence (P11473 whole entry, looked up): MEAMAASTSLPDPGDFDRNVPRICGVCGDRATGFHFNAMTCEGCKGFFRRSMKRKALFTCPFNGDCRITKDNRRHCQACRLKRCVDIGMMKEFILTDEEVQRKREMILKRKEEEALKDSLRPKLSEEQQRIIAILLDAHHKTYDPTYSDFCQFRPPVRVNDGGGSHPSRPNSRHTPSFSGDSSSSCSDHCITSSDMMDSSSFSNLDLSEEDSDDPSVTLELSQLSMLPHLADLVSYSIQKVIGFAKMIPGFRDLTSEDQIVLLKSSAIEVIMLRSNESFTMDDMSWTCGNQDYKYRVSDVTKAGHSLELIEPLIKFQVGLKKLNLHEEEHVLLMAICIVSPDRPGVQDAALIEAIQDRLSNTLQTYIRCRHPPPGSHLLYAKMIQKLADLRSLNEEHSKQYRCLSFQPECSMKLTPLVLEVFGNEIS
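The screen uses fluorescence polarization to detect compounds that interfere with recruitment of the SRC2-3 coactivator peptide to VDR; plates are read after 2 h at room temperature.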
* = called active by the depositor; ? = inconclusive; & = joins results of further samples. % is set by controls: 0 for no effect and ±100 for the full control effect; potency is the fitted concentration of half-maximal effect. The list is partial; rates above refer to the full screens.

SMILES	VDR inh
S=c1[nH]nc2n1CCCN2	-2%
Cc1ccc(C)c(N2CCN(c3ncnc4c3cnn4-c3ccccc3)CC2)c1	?
CCc1ccccc1NC(=O)[C@@H]1CCC(=O)N1C1OC(=O)c2c1ccc(OC)c2OC (some centres undefined)	-3%
CCN(CC)C(=O)CC(c1ccc2c(c1)OCO2)c1c(O)cc(OC)cc1OC (centres undefined)	-4%&-8%
COc1ccc(CC(=O)NNc2ncnc3c2cnn3-c2ccccc2)cc1	-3%
COc1ccc(C2SCC(=O)N2c2c(C)n(C)n(-c3ccccc3)c2=O)cc1OC (centres undefined)	0%
O=C(CCCN1C(=O)/C(=C\c2ccccc2)SC1=S)Nc1cccc(C(=O)O)c1	?
Cc1[nH]n(-c2ccccc2)c(=O)c1/C=N/NC(=O)c1cccc(F)c1	-2%
c1cc(-c2nnn(CCOCCn3nnc(-c4ccncc4)n3)n2)ccn1	-15%
CN(C)CCCNC(=O)c1ccc(Cl)c(S(=O)(=O)N2CCCCCC2)c1	0%
COCC(=O)Nc1nc2n(n1)C(c1ccc(OC)cc1)CC(c1ccc(OC)cc1)N2 (centres undefined)	11%
Cc1ccc([N+](=O)[O-])cc1N1C(=O)CS/C1=N\NC(=O)c1cccnc1	16%
COc1ccc(-n2c(C)nc3c(cnn3-c3ccc(C)cc3)c2=O)cc1	14%
COc1ccc(C(=O)O)cc1S(=O)(=O)NCc1ccccn1	-12%
CC1CN(CCCCSc2ccccc2)CC(C)O1 (centres undefined)	-6%
CC(=O)Nc1ccc(-c2csc(NCCc3ccccc3)n2)cc1	0%
CN1C(=O)N(C)C2(c3ccccc3)N(C)C(=O)NC12c1ccccc1 (centres undefined)	4%
COc1c(Cl)cc(Cl)cc1CNc1ccc(S(N)(=O)=O)cc1	-4%
COCCCn1cnnc1SC(C)C(=O)Nc1ccc(S(=O)(=O)N2CCOCC2)cc1 (centres undefined)	-2%
Cc1ccc2c(c1)c(-c1ccccc1)nc1nnnn12	-9%

Exported as labelled records: part of the list above
COc1ccc(CC(=O)NNc2ncnc3c2cnn3-c2ccccc2)cc1
  VDR inh: -3%

CC(=O)Nc1ccc(-c2csc(NCCc3ccccc3)n2)cc1
  VDR inh: 0%

S=c1[nH]nc2n1CCCN2
  VDR inh: -2%

Some of these compounds in order of their number in VDR inh, lowest first:
SMILES	VDR inh
c1cc(-c2nnn(CCOCCn3nnc(-c4ccncc4)n3)n2)ccn1	-15%
COc1ccc(CC(=O)NNc2ncnc3c2cnn3-c2ccccc2)cc1	-3%
COCCCn1cnnc1SC(C)C(=O)Nc1ccc(S(=O)(=O)N2CCOCC2)cc1 (centres undefined)	-2%
CN1C(=O)N(C)C2(c3ccccc3)N(C)C(=O)NC12c1ccccc1 (centres undefined)	4%
COc1ccc(-n2c(C)nc3c(cnn3-c3ccc(C)cc3)c2=O)cc1	14%

Later entries.
SMILES	VDR inh
CCC(=O)N(c1ccc(F)cc1)C1C=CS(=O)(=O)C1 (centres undefined)	5%
COc1ccc(CCn2c(N)c(C(=O)NCc3ccco3)c3nc4ccccc4nc32)cc1OC	24%
O=C1C(=O)N(CCCO)C(c2ccc(Br)cc2)/C1=C(\O)c1ccc(Br)cc1 (centres undefined)	-28%
CC(C)(C)NC(=O)C(c1ccc(Cl)cc1)N(Cc1ccco1)C(=O)CCl (centres undefined)	-18%
COc1cccc(C(=O)Nc2ccc(N3CCN(Cc4ccccc4)CC3)cc2)c1	-3%
CCOc1ccccc1NC(=O)Cc1csc(COc2cccc(C)c2)n1	-5%
CC(C)CN(Cc1cc(=O)oc2cc3c(cc12)CCCC3)CC(C)C	-10%
CCOc1ccc(CCNC(=O)c2cc(=O)[nH]c3ccc(S(=O)(=O)N(CC)CC)cc23)cc1OCC	-25%
O=C(Nc1ccccn1)c1ccc(Br)c(S(=O)(=O)N2CCCCC2)c1	-4%
O=C(O)COc1ccccc1/C=N/NC(=O)c1cccc(S(=O)(=O)Nc2cccc(Cl)c2)c1	5%
Cc1ccc(Cl)cc1N1CCN(C(=O)C2CCN(S(C)(=O)=O)CC2)CC1	0%
COc1cccc(CNC(=O)[C@H](C)NC(=O)C2CCN(S(=O)(=O)c3ccccc3)CC2)c1	?
O=S(=O)(c1ccc(Cl)nc1)N(Cc1ccccc1)Cc1ccccc1	-22%
CCN(C(=O)COC(=O)CCOc1ccccc1C)c1c(N)n(Cc2ccccc2)c(=O)[nH]c1=O	-16%
O=C(/C=C/c1ccco1)Nc1cccc(-c2nc3ccccc3[nH]2)c1	-3%
CS(=O)(=O)Nc1ccc([N+](=O)[O-])cc1Oc1ccccc1	?
Cc1ccc(NC(=O)C[n+]2cc(-c3ccccc3)n3c2CCC3)cc1	-15%
COc1ccc(N(C(=O)c2ccc3c(c2)OCO3)C2C=CS(=O)(=O)C2)c(OC)c1 (centres undefined)	-2%
CCOc1ccc(CCNC(=O)CSCC(=O)Nc2cccc(C)c2)cc1OCC	-27%
CN(C)CCNC(=S)Nc1ccc(Br)cc1	9%
CCN(CC(=O)Nc1c(F)cccc1F)C(=O)CCCNC(=O)c1ccc(Cl)cc1	-1%
COc1ccc(C(=O)N/C(=C\c2cn(C)c3ccccc23)C(=O)N2CCOCC2)cc1OC	-3%
CCN1CCN(C(=O)Cn2c(-c3cccs3)cc3ccccc32)CC1	10%
COc1ccc(-c2cc(C(=O)Nc3c(C)n(C)n(-c4ccccc4)c3=O)c3ccccc3n2)c(OC)c1	-15%
Cc1cccc(CCNc2nc3ccc(C)cc3n3cnnc23)c1	-10%
COc1ccc(OC)c(-c2csc(N(C)C(=O)Cc3ccccc3)n2)c1	-7%
CCN(CC)C(=O)c1cnn(-c2ccccc2)c1NC(=O)c1cccc(F)c1	-6%
CC1(c2ccccc2)NC(=O)N(CC(=O)NCc2ccc3c(c2)OCO3)C1=O (centres undefined)	4%
COc1ccc(NC(=O)Cc2ccccc2)cc1	-1%
CC(=O)N1CCN(CC(=O)Nc2ccc([N+](=O)[O-])cc2Br)CC1	-3%
CCc1cc2c(SCC(=O)Nc3ccc(Cl)cn3)ncnc2s1	-4%
OC(COc1ccc2c(c1)OCO2)CN1CCCC1 (centres undefined)	-3%
Cc1nn(C)c(C)c1/C=C1/SC(=S)NC1=O	-17%
O=C(CCN1C(=O)/C(=C/c2ccccc2Cl)SC1=S)NNC(=O)c1cccnc1	-14%
CO/N=C(\C(=O)N[C@@H]1C(=O)N2C(C(=O)O)=C(COC(C)=O)CS[C@H]12)c1csc(N)n1 (stereo in doubt)	-26%&-8%&-16%
CC(Sc1nc2cc(Cl)ccc2s1)C(=O)Nc1cccc(S(=O)(=O)N2CCOCC2)c1 (centres undefined)	-7%
CC(NC(=S)NCCCN1CCOCC1)C1CC2CCC1C2 (centres undefined)	-17%
Cc1ccc(Cl)cc1NC(=O)Cn1c(=O)oc2cc(S(=O)(=O)N3CCCC3)ccc21	10%
CCOCCCNC(=O)C1CCN(S(=O)(=O)CC)CC1	-6%
CCC(C)(C)n1nnnc1CN1CCC(O)(c2cccc(C(F)(F)F)c2)CC1	3%
COC(=O)N/N=C/c1ccc(-c2cc(Cl)cc(Cl)c2)o1	-6%
COc1ccc(-c2cccc(-c3cc(=O)oc4cc(OC)cc(OC)c34)c2)cc1	12%
COc1ccc(CCNS(=O)(=O)c2ccc3c(c2)oc(=O)n3C)cc1OC	-6%
CC1C(=O)N2CCCc3cc(NS(=O)(=O)c4ccc(F)cc4)cc1c32 (centres undefined)	-1%
Cc1ccccc1OCCC(=O)Nc1cc(S(=O)(=O)N2CCOCC2)ccc1OC(C)C	-10%
CC(C)CN(C(=O)CSc1nc2ccccc2[nH]1)C1CCS(=O)(=O)C1 (centres undefined)	5%
NC(=O)C1(N2CCCCC2)CCN(C(=S)Nc2ccc(F)cc2)CC1	-10%
C[C@@H]1CC[C@@]2(O[C@@H](CCO)C[C@@H](O)[C@@H]2O)O1	7%
COc1ccc2nc(-c3ccccc3)cc(OC)c2c1	-3%
CC(C)CNC(=S)NNC(=O)c1ccco1	10%
CCCc1cc(=O)oc2cc(C)cc(OC(C)C(=O)NCCCN3CCOCC3)c12 (centres undefined)	0%
Cc1cc(-c2nnc(CSc3nnc(NC(=O)c4ccc(C(C)(C)C)cc4)s3)o2)ccc1[N+](=O)[O-]	-12%
NC(=O)c1ccccc1NC(=O)CSc1nc2ccccc2c(=O)[nH]1	1%
CCCOC(=O)c1c(NC(=O)C2c3ccccc3Oc3ccccc32)sc2c1CCC(C)C2 (centres undefined)	-18%
Cc1cc(NC(=O)CCN2C(=O)c3ccccc3C2=O)no1	1%
O=C(NNC(=O)c1ccc2ccccc2c1)Nc1ccc(F)cc1	1%
CCOC(=O)C(CN1CCCC1)c1ccccc1 (centres undefined)	-10%
Cc1nc2ncnn2c(C)c1CCC(=O)Nc1ccc(S(=O)(=O)N2CCCCCC2)cc1	-7%
Cc1ccc2cc(CCNC(=O)C(C)C)c(=O)[nH]c2c1	-13%
CCC(=O)Nc1ccc(/C(C)=N\NC(=O)c2ccc(OC)cc2)cc1	-13%

4 of the compounds above, as labelled records.
> COc1cccc(C(=O)Nc2ccc(N3CCN(Cc4ccccc4)CC3)cc2)c1
  VDR inh: -3%
> Cc1cccc(CCNc2nc3ccc(C)cc3n3cnnc23)c1
  VDR inh: -10%
> NC(=O)C1(N2CCCCC2)CCN(C(=S)Nc2ccc(F)cc2)CC1
  VDR inh: -10%
> NC(=O)c1ccccc1NC(=O)CSc1nc2ccccc2c(=O)[nH]1
  VDR inh: 1%

Additional structures follow:
SMILES	VDR inh
O=C(COc1nsnc1N1CCOCC1)Nc1ccc(Cl)cc1	-3%
CC(C)C(=O)Nc1oc(-c2ccccc2)cc1C#N	-25%
CCOC(=O)c1c(CN(CC)CC)n(-c2ccccc2)c2ccc(O)cc12	-2%
CCn1c(C)nc2c(C)[n+](CC(=O)c3ccc(Br)cc3)ccc21	-16%
Cn1cccc1C(=O)NC(=O)COC(=O)CCNS(=O)(=O)c1ccc(Cl)cc1	2%
CC(C)On1c(SCC(=O)N(C)C)nc2ccccc2c1=O	6%
FC(F)(F)c1ccccc1-n1c(CN2CCCCC2)n[nH]c1=S	9%
COc1ccc(S(=O)(=O)N(CC(=O)NCc2cccnc2)c2ccc(C)cc2)cc1OC	1%
CCCN1C(=O)N(c2cccc(C)c2)C(C)(O)CC1(C)C (centres undefined)	5%
COc1c(-c2coc3cc4c(cc3c2=O)CC(OC(C)=O)C(C)(C)O4)ccc2c1C=CC(C)(C)O2 (centres undefined)	5%
COc1ccc(C2CC(c3cccc(OC)c3)n3nc(N)nc3N2)cc1 (centres undefined)	-15%
COc1ccccc1N1CCN(C(=O)C2CCN(S(=O)(=O)c3ccc4c(c3)CC(C)N4C(C)=O)CC2)CC1 (centres undefined)	-9%
C#CCn1cc(/C=N/NC(=O)COc2cccc3cccnc23)c2ccccc21	-8%
CCNC(=O)CN(c1ccc(F)cc1)S(=O)(=O)c1ccc2c(c1)OCCO2	23%
COc1ccc(NC(=O)CSc2nc(C)cs2)c(OC)c1	-5%
CN(c1cccc(NC(=O)c2ccccc2N(C)S(C)(=O)=O)c1)S(C)(=O)=O	-12%
COc1ccc(C(=O)Nc2ccc(C(=O)N3CCCC3)cc2)cc1[N+](=O)[O-]	1%
C/C(=N/NC(=O)CNC(=O)c1cccnc1)c1ccc([N+](=O)[O-])cc1	8%
CCN(CC)C(=O)CC(c1ccccc1)c1ccco1 (centres undefined)	2%
COc1ccc(NC(=O)CC(c2ccccc2)c2ccco2)cc1 (centres undefined)	-7%
COc1ccc(/C=N/NC(=O)c2ccc(Br)cc2)cc1Cn1cc(Cl)cn1	0%
Cc1cccc(/C=N\NC(=O)c2ccc(Cl)cc2)c1O	-10%
O=C(O)C(NC(=O)C1CCCN1C(=O)OCc1ccccc1)c1ccccc1 (centres undefined)	12%
Fc1ccc(N=Cc2ccc[nH]2)cc1	0%
Cc1cc(=O)n2nc(N3CCC(C(=O)Nc4c(F)c(F)c(F)c(F)c4F)CC3)sc2n1	30%
Cc1ccc(NC(=O)C(OC(=O)c2ccc(F)cc2)c2ccccc2)cc1Cl (centres undefined)	2%
Cn1c(=O)c2c(nc(NC3CCCCC3)n2CC(=O)C23CC4CC(CC(C4)C2)C3)n(C)c1=O	18%
O=C(CN1CCSC1=NCc1ccccc1)c1ccc(Cl)c(Cl)c1	-10%
Cc1ccc(N2C(=O)CSC23C(=O)N(CC(=O)Nc2ccc(C(C)C)cc2)c2ccccc23)cc1C (centres undefined)	7%
COc1ccc(Cl)cc1NC(=O)CN(C)C(=O)c1cc(C)oc1C	8%
Cc1ccc(C(=O)Nc2cccc(C(=O)N/N=C/c3ccc(O)cc3)c2)cc1	3%
CC(O)c1nc2ccccc2n1CCCOc1ccccc1 (centres undefined)	1%
CC(=O)Nc1ccc(Nc2ncnc3c2cnn3-c2ccccc2)cc1	18%
CCOC(=O)C(=NC(C)(C)C)NNc1cc(Cl)ccc1Cl	3%
Cc1ccc(Cn2c(=O)oc3ccccc32)cc1	-23%
COC(=O)C1CCN(Cc2ccc(C)cc2)CC1	-7%
CCOC(=O)C1OC1(c1ccccc1)c1ccccc1 (centres undefined)	-5%

A draw from above in order of number of heavy atoms, rising.
SMILES	VDR inh
CCOC(=O)C(=NC(C)(C)C)NNc1cc(Cl)ccc1Cl	3%
COc1ccc(Cl)cc1NC(=O)CN(C)C(=O)c1cc(C)oc1C	8%
COc1ccc(/C=N/NC(=O)c2ccc(Br)cc2)cc1Cn1cc(Cl)cn1	0%
Cc1ccc(C(=O)Nc2cccc(C(=O)N/N=C/c3ccc(O)cc3)c2)cc1	3%
Cc1cc(=O)n2nc(N3CCC(C(=O)Nc4c(F)c(F)c(F)c(F)c4F)CC3)sc2n1	30%
Cn1c(=O)c2c(nc(NC3CCCCC3)n2CC(=O)C23CC4CC(CC(C4)C2)C3)n(C)c1=O	18%

Compound activity: PubChem, National Center for Advancing Translational Sciences (NCATS)
